# D1 agonist = agonists of human D1 dopamine receptor; AID 504660; actives 1% (n = 360,000); HEK293 T-REx D1 cells, calcium flux, agonist mode; activation, % at 2 µM; P21728; in the data active = activation above about 30%; also: 0% is about no effect
# Target sequence (P21728 whole entry, looked up): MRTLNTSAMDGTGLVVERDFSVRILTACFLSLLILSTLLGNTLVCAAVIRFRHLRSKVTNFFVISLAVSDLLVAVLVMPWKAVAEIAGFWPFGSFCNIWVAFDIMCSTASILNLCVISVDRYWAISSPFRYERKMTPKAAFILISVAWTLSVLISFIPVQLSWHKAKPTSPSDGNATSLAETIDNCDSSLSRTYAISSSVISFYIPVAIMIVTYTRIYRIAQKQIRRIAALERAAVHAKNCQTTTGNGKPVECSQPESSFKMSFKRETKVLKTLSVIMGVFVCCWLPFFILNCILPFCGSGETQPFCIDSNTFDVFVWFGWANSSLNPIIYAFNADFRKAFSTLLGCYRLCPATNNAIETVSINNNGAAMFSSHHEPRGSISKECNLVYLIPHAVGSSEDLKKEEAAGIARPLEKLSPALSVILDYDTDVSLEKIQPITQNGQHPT
#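 Agonism was scored from calcium flux recorded over 180 s (1 read/s) after pintool compound addition, following a 10-cycle baseline. Cells were inducible force-coupled HEK293 TREx D1, plated overnight at 30 C and loaded with no-wash calcium dye.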
# LDHA block = inhibitors of human lactate dehydrogenase A; activity change, % (values are at about 110 or 230 µM); P00338; actives 0.15% (n = 480,000); purified LDHA, NADH/diaphorase-resazurin fluorescence; hits give low values; in the data active = activity change below about -30%; inconclusive = mostly about -25% to -30%;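 also: plate controls were DMSO wells for no effect and wells without enzyme for full effect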
#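 Resorufin fluorescence (ex540/em590), read at 0 and 20 min after diaphorase/resazurin addition, reports the NADH left after a 5 min room-temperature reaction of 2 nM human LDH5 with 0.06 mM NADH and 0.2 mM pyruvate.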
# Vif-A3G inh = blocks the Vif interaction with human APOBEC3G; Q9HC16; HeLa A3G-eYFP + Vif (tagged APOBEC3G with the HIV-1 protein that degrades it), YFP fluorescence, overnight; Potency, µM (titrated, usually from 46.1 µM), for the others: at the highest dose activity, negative = active, actives largely listed as inhibitors; actives 0.076% (n = 410,000); AID 602310;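 also: potency is read from the fitted curve at half-maximal effect; % is scaled to controls: 0 for no effect and ±100 for the full control effect; nearly all actives have a fitted effect of over 60% in size; hits raise eYFP signal because A3G escapes Vif-driven loss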
# Target sequence (Q9HC16 whole entry, looked up): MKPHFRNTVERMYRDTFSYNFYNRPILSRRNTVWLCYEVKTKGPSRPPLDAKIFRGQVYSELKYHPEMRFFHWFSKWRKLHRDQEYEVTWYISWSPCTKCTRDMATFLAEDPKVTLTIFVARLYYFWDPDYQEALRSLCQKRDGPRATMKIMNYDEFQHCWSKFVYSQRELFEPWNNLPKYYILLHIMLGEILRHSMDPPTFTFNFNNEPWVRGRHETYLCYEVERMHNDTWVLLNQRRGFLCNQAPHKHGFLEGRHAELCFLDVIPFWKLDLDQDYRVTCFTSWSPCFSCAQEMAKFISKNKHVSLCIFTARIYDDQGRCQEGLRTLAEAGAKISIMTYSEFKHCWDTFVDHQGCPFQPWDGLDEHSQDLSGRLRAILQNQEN
#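 HeLa cells stably expressing Vif and C-terminally eYFP-tagged A3G, seeded overnight at 37 deg C, then exposed to compound by pintool overnight at 37 deg C. Rise in yellow fluorescence (Ex 488/Em 500-530, Acumen) marks blocked Vif-driven A3G degradation.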
# D1 antag = blocks dopamine activation of the human D1 receptor; AID 504652; actives 3.2% (n = 360,000); P21728; activity change, negative = inhibition, % at 10 µM; HEK293 TREx D1 cells, calcium flux, dopamine EC80; hits give low values; in the data active = activity change below about -30%; also: % is scaled to controls: 0 for no effect and ±100 for the full control effect
#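 Using tetracycline-induced force-coupled D1 Hek293 cells and a calcium dye, signals were followed for 180 s after compound, then for 180 s after EC80 dopamine, to detect inhibitors.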
# D1 PAM = potentiators of human D1 dopamine receptor; P21728; HEK293 TREx D1 cells, calcium flux, dopamine EC20 potentiation; potentiation, % at 10 µM; actives 0.036% (n = 360,000); AID 504651; in the data active = potentiation above about 30%; also: 0% is about no effect
# Vif-APOBEC3F blk = inhibitors of Vif-A3F interaction; HeLa A3F-eYFP + Vif (tagged APOBEC3F with the HIV-1 protein that degrades it), YFP fluorescence increase; Potency, µM (series often up to 46.1 µM), without a hit: at the highest dose activity, negative = active; actives 0.2% (n = 390,000); also: potency is read from the fitted curve at half-maximal effect; % of control where 0% means no effect; nearly all actives have a fitted effect of over 65% in size
#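 HeLa cells stably expressing Vif plus C-terminally eYFP-tagged A3F were seeded, incubated overnight at 37 deg C, dosed with compound, incubated overnight again at 37 deg C. Yellow fluorescence (Ex 488/Em 500-530) reported blocked Vif-mediated A3F-eYFP degradation.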
# D2 PAM = D2 dopamine receptor (human) potentiation | HEK293 T-REx D2, calcium flux, EC20 dopamine potentiation | actives 0.34% (n = 340,000) | P14416 | potentiation, % at 10 µM | AID 485347;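 active = potentiation over 3 SD above the plate norm, cut at about 30% in these data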; also: 0% is about no effect
#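 Tetracycline-induced HEK293 T-REx cells force-coupled to calcium signalling expressed D2; compounds were pin-added after a 10 s baseline, read kinetically 180 s, then an EC20 dopamine challenge followed with a further 180 s calcium read.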
# GRP78 ERSR act = ER stress response induction in glioma. U87-MG GRP78 promoter luciferase reporter, 16 h. Potency, µM, inactives show at the top dose activation, most hits filed as activators. actives 0.02% (n = 420,000). AID 602332; also: potency is read from the fitted curve at half-maximal effect; series mostly up to about 76 µM; % of control where 0% means no effect; nearly all actives have a fitted effect of over 35% in size
#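 Stably transfected U87-MG glioma cells carrying a GRP78-based luciferase sensor; 16 h compound incubation. Luminescence end-point read 10 min after Bright-Glo addition at room temperature.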
# * = called active by the depositor; u = inconclusive; x = not tested or not shown; & = joins results of further samples. Unless noted, calls follow the shape of the dose curve; as a rule, active = well fitted curve in the direction sought with a large enough effect; inconclusive = small, poorly fitted or top-dose-only effect, or another doubt; inactive = no such curve, though single readings can be large; an effect the other way counts as inactive or inconclusive. These rows are one share of the data (hit frequency here may not be typical).
SMILES,D1 agonist,LDHA block,Vif-A3G inh,D1 antag,D1 PAM,Vif-APOBEC3F blk,D2 PAM,GRP78 ERSR act
Cc1cc(N/N=C\c2ccc(Br)cc2)nc(-n2nc(C)cc2C)n1,0,-5,1%,-1,7,2%,12,-3%
O=C(O)CSc1ncnc2c1sc1nc(-c3ccccc3)c3c(c12)CCC3,1,-10,-6%,8,-4,8%,3,-2%
c1coc(Cn2nnnc2CN2CCN(C3CCCC3)CC2)c1,-2,-2,3%,-8,-8,-4%,-10,-2%
COc1cccc(-n2c(=S)[nH]c3c(oc4ccccc43)c2=O)c1,2,-2,1%,11,2,3%,3,6%
COc1cccc(C2C(C(=O)c3cc4ccccc4o3)=C(O)C(=O)N2CCN2CCOCC2)c1 (centres undefined),-2,3,-2%,11,11,-8%,-17,-3%
Cc1ccc(C2C3=C(NCCN=C3c3ccccc3)C(=O)N2c2ccccc2)cc1 (centres undefined),5,1,0%,15,-2,0%,1,-5%
Cn1c(=O)c2c(nc(-n3ccnc3)n2Cc2ccc(Cl)cc2Cl)n(C)c1=O,0,0,-7%,5,6,-2%,-17,-4%
COc1ccc(OCC(=O)Nc2nc(-c3ccc(Br)cc3)ns2)cc1,1,-3,-2%,-29,-1,-4%,15,-2%
Cc1ccc(NC(=S)NC(=O)c2ccccc2)cc1NC(=S)NC(=O)c1ccccc1,4,0,1%,10,-10,-6%,9,-2%
O=C(NC1CCCC1)C(c1ccncc1)N(C(=O)c1ccco1)c1ccccc1 (centres undefined),0,-11,0%,-9,0,4%,14,0%
O=C(CSc1ncnc2c1oc1ccccc12)Nc1cccc(Cl)c1,1,-6,0%,1,9,6%,11,2%
COc1ccc(NC(=O)CSc2nnc(-c3cccs3)n2C)cc1OC,-2,-4,1%,-4,-1,1%,8,-1%
CCOc1ccccc1C(=O)NC1(C(F)(F)F)C(=O)Nc2c1c(=O)[nH]c(=O)n2-c1ccc(F)cc1 (centres undefined),1,-3,-3%,11,2,-4%,-3,-4%
Cc1ccccc1C(=O)NC1(C(F)(F)F)C(=O)Nc2c1c(=O)[nH]c(=O)n2-c1ccc(F)cc1 (centres undefined),2,1,0%,-6,-4,1%,-1,-3%
CNS(=O)(=O)c1ccc(OC)c(-c2nnc3c4ccccc4c(C)nn23)c1,-1&2,-9&1,-1%&-1%,10&-4,2&-1,-7%&4%,10&0,5%&0%
CC(=O)c1ccc(NC(=O)COc2ccccc2C(=O)Nc2ccc(C)cn2)cc1,-2,-1,1%,x,-4,-5%,3,3%
O=C(COc1ccc(Cl)cc1)Nc1ccc(-c2nc3cc(Cl)ccc3o2)c(O)c1,1,-5,0%,4,-2,1%,5,0%
C/C(=N\NC(=O)c1ccc(NS(=O)(=O)c2cccs2)cc1)c1ccncc1,5,-6,1%,-8,12,9%,-2,-3%
Cc1ccc(NC(=O)c2sc3nc(-c4ccc(F)cc4)ccc3c2N)cc1F,5,1,-1%,-18,-4,-13%,x,-1%
Cc1ccc(C(=O)C2=C(O)C(=O)N(CC3CCCO3)C2c2ccccc2F)o1 (centres undefined),1,-5,0%,9,-11,4%,18,-2%
c1ccc(C(c2ccccc2)N2CCN(Cc3nnnn3C3CCCC3)CC2)cc1,0,1,-1%,2,-3,2%,0,-8%
Cc1ccc(OCC(=O)OCc2cc(=O)n3c(C)csc3n2)cc1,7,-8,-1%,-12,-6,1%,-9,-2%
CC(C)Nc1nc2c(-c3cccc(Br)c3)nnn2c2ccccc12,2,1,-2%,10,1,-22%,-1,2%
COc1cc(NC(=O)c2nc3ccccc3n(C)c2=O)cc(OC)c1OC,-1,-4,0%,-13,0,1%,-6,-2%
CCOC(=O)NCC(C)(C)CNC(=O)OCC,4,-1,-1%,-5,12,-1%,-11,1%
# Remaining list, next part.
SMILES,D1 agonist,LDHA block,Vif-A3G inh,D1 antag,D1 PAM,Vif-APOBEC3F blk,D2 PAM,GRP78 ERSR act
COc1ccc(OC)c(CNC(=O)c2ccc(N3Cc4ccccc4Oc4ncccc43)s2)c1,3,0,-1%,-7,-3,1%,9,-5%
COc1ccccc1CNc1nccn(-c2ccccc2)c1=O,1,1,-2%,1,-6,7%,-29,3%
COCCn1c(=NC(=O)CSCC(=O)N2CCOCC2)sc2ccccc21,0,-7,-5%,-46*,-5,3%,4,-3%
CCc1cccc(NC(=O)c2cc3c(=O)n(Cc4ccc(OC)cc4)ccc3nc2C)c1,3,-3,-7%,5,-7,1%,-7,-5%
NS(=O)(=O)c1ccc2nc(NC(=O)c3ccc4c(c3)OCCO4)sc2c1,1,-2,-9%,8,-8,2%,9,-4%
CC(=O)N/C(=C\c1ccccc1)C(=O)OC(C)C(=O)NCc1ccccc1 (centres undefined),5,-4,-3%,-22,-3,-31%,-11,-5%
CCC1(C)Cc2ccccc2-c2[nH]c(=S)[nH]c(=O)c21 (centres undefined),1,-4,1%,2,-5,-23%,0,-3%
CC1Cc2cc(/C(O)=C3\C(=O)C(=O)N(Cc4cccnc4)C3c3ccccc3F)ccc2O1 (centres undefined),-1,2,-1%,-2,2,-7%,3,-2%
COc1cccc(C2/C(=C(\O)c3ccc4c(c3)OCCO4)C(=O)C(=O)N2Cc2cccnc2)c1 (centres undefined),1,0,-8%,-9,-3,-7%,-10,2%
Cc1nn(-c2ccccc2)c2[nH]c(=O)c(CNCC3CCCO3)cc12 (centres undefined),1,2,0%,5,-4,-8%,2,-8%
CCOc1ccc(/C=C/c2nc(C#N)c(N3CCN(c4ccccc4)CC3)o2)cc1,-1,-11,-1%,-7,-2,-6%,7,-2%
Cc1cccc(Cn2c(=O)n(CCCC(=O)NCc3ccco3)c(=O)c3ccccc32)c1,3,-7,u,-3,-3,u,15,-6%
Cc1cc(NC(=O)CSc2ncnc3sc(C)c(C)c23)no1,3,-6,1%,12,0,-24%,9,0%
O=C(COC(=O)c1ccccc1)Nc1cccc(S(=O)(=O)NC2=NCCCCC2)c1,4,-5,4%,-2,-4,5%,2,-1%
Cc1onc(-c2ccccc2Cl)c1C(=O)NC(=S)NCC(=O)c1ccccc1,4,-5,1%,2,0,2%,-3,2%
COc1ccc2cc(C#N)c(SCC(=O)N3CC(=O)Nc4ccccc43)nc2c1,5,-9,u,-7,0,u,-7,-3%
CCc1ccc(C(=O)OCC(=O)Nc2cccc(S(=O)(=O)NC3=NCCCCC3)c2)cc1,4,-3,-1%,11,-6,-14%,4,-3%
C/C(=N\NC(=O)c1ccc(NS(=O)(=O)c2cccs2)cc1)c1cccs1,1,-10,-4%,7,1,-1%,2,-2%
On1c(-c2ccco2)nc2c1CCc1nonc1-2,7,3,1%,4,1,0%,4,-5%
CC(=O)Nc1ccc(N(C(=O)c2cnccn2)C(C(=O)NC2CCCCC2)c2ccc(O)cc2)cc1 (centres undefined),3,6,2%,6,2,-12%,-11,-3%
CC1=C(C(=O)OCC2CCCO2)C(c2cccc(C(F)(F)F)c2)C2=C(CC(c3ccco3)CC2=O)N1 (centres undefined),2,0,2%,x,2,-10%,-10,0%
COc1ccc(Br)cc1-c1nc2c(c(=O)[nH]c(=O)n2Cc2ccccc2)n1C,0,-5,3%,36,-2,-7%,-3,-2%
Cc1cc(N2C(=O)C(O)=C(C(=O)c3cc4ccccc4o3)C2c2ccc(OC(C)C)cc2)no1 (centres undefined),4,-6&-1,4%,-25,-5,3%,-7,-5%
O=C(Nc1ccccc1)c1cccnc1Nc1ccccc1,3,0,5%,-5,-3,4%,-4,-3%
Cc1cc2c(cc3c(SCC(=O)Nc4cccc(Cl)c4C)nnc(C)n32)o1,0,-5,-2%,3,-1,0%,5,1%
O=C(O)c1cccc(S(=O)(=O)N2CCSCC2)c1,3,0,0%,-10,-6,-6%,6,-3%
CCN1CCN(C(CNS(=O)(=O)c2ccc(OC)cc2)c2cccnc2)CC1 (centres undefined),3,-6,4%,0,-6,-1%,1,-4%
Fc1cccc(Cc2noc(CN3CCSCC3)n2)c1,0,0,-11%,4,-1,-2%,8,-4%
COc1cc2[nH]c(=S)n(Cc3ccc(C)o3)c(=O)c2cc1OC,0,2,0%,19,-1,5%,5,-7%
O=C(O)c1ccc2nc3c(nc2c1)-c1ccccc1C3=O,2,17,-2%,-20,-4,-10%,8,5%

# Structural class, those above with two or more sulfur atoms (nine)
SMILES,D1 agonist,LDHA block,Vif-A3G inh,D1 antag,D1 PAM,Vif-APOBEC3F blk,D2 PAM,GRP78 ERSR act
O=C(O)CSc1ncnc2c1sc1nc(-c3ccccc3)c3c(c12)CCC3,1,-10,-6%,8,-4,8%,3,-2%
Cc1ccc(NC(=S)NC(=O)c2ccccc2)cc1NC(=S)NC(=O)c1ccccc1,4,0,1%,10,-10,-6%,9,-2%
COc1ccc(NC(=O)CSc2nnc(-c3cccs3)n2C)cc1OC,-2,-4,1%,-4,-1,1%,8,-1%
C/C(=N\NC(=O)c1ccc(NS(=O)(=O)c2cccs2)cc1)c1ccncc1,5,-6,1%,-8,12,9%,-2,-3%
COCCn1c(=NC(=O)CSCC(=O)N2CCOCC2)sc2ccccc21,0,-7,-5%,-46*,-5,3%,4,-3%
NS(=O)(=O)c1ccc2nc(NC(=O)c3ccc4c(c3)OCCO4)sc2c1,1,-2,-9%,8,-8,2%,9,-4%
Cc1cc(NC(=O)CSc2ncnc3sc(C)c(C)c23)no1,3,-6,1%,12,0,-24%,9,0%
C/C(=N\NC(=O)c1ccc(NS(=O)(=O)c2cccs2)cc1)c1cccs1,1,-10,-4%,7,1,-1%,2,-2%
O=C(O)c1cccc(S(=O)(=O)N2CCSCC2)c1,3,0,0%,-10,-6,-6%,6,-3%
